GALR2 ag: activates the human galanin receptor 2. O43603. GALR2-expressing cells, agonist activation read-out. activation, %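 (tested at 5 µM)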. 140,000 compounds, 0.48% hits;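 active means above mean plus 3 SD of all compounds, about 5% in these data, not always enough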;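 further: 0% = vehicle buffer wells and 100% = reference agonist at full effect; tested in CHO reporter cells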
Target sequence (O43603 whole entry, looked up): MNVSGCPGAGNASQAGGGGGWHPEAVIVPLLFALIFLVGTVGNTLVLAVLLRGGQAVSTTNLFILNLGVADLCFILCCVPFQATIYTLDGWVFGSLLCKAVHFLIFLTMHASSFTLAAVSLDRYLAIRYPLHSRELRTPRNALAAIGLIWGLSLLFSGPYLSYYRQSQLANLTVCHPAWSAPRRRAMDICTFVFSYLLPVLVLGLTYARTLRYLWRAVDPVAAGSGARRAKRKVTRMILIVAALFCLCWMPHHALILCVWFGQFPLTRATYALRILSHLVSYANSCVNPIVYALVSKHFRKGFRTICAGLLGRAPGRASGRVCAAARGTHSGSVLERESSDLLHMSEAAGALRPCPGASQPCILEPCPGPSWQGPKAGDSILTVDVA
INS promoter inh: TRM-6 insulin promoter activity inhibition | TRM-6 cells (human fetal islet line), insulin promoter-eGFP reporter, imaging; reporter expression induced with tamoxifen | inhibition, % at 2 µM | 130,000 compounds, 0.9% hits;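 active means inhibition above the mean plus 3 SD, with well images judged a real hit on visual review, cut at about 60% in these data, passing the limit was not always enough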
HSV augment: HSV replication enhancement. maximum fold increase. 220,000 compounds, 0.005% hits. HSV replication augmentation in cells, fold increase. AID 1956;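 active means peak rise of 1.5-fold or more in the series; tested in PC3 cells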;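 further: first round at 10 µM; read as green reporter fluorescence; hits show the peak of a series up to 25 µM; 1 = signal of infected wells without compound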
RGS16-Gao HTS: modulates binding between human RGS16 and Galphao. O15492+P09471. bead-based flow cytometry RGS16-Galphao binding, fluorescence; actives lie on both sides. binding response (% of control), % at 10 µM. 220,000 compounds, 0.38% hits. AID 1441;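 active means below 25% or above 175%, edge rows of some plates excepted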;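 further: Galphao activated by GDP with aluminum fluoride before binding; 100% = wells without compound and 0% = beads without RGS; some results beyond the cut were filed as inactive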
Target sequence (O15492 whole entry, looked up): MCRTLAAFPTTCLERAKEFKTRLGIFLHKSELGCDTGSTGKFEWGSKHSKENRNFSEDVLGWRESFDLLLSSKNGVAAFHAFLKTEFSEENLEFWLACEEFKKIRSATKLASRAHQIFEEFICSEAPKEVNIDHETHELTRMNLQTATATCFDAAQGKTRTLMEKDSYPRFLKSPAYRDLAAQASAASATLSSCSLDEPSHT
Target sequence (P09471 whole entry, looked up): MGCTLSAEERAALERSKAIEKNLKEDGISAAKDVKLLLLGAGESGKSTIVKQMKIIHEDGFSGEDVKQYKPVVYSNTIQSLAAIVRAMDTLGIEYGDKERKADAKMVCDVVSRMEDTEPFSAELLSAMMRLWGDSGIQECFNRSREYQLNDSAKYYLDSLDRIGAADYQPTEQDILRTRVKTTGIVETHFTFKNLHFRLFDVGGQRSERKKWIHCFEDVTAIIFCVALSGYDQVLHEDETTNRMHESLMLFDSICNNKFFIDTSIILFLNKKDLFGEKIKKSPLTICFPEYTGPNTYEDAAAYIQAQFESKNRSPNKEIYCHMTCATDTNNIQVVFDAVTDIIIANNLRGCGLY
PKD1 inh: blocks activity of human protein kinase D1. Q15139. PKD1 kinase fluorescence polarization assay. inhibition, %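 (about 10 µM by stock and volumes)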. 200,000 compounds, 0.056% hits;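 active means inhibition of 50% or more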;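 further: controls were vehicle for no effect and a reference inhibitor for full effect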
INS promoter inh cell count: also measured in INS promoter inh; calls as there; normalized cell count, %; measured here: cell count, toxicity; reference of the scale not given here;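 cells exposed to compound for 48 h; stained nuclei by imaging scaled within each plate; lower means fewer cells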
HSV augment primary fold: further read-out of HSV augment, marked with its call; fold increase; compound at 10 µM; measured here: primary screen fold increase 10 uM; tested in PC3 cells;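 GFP signal in the first replicate; 1 = infected wells without compound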
Numbers without * were called inactive; i = inactive; x = not tested or not shown. Hits appear at their usual frequency. About 1.1% of those tested had a hit in this group.

SMILES	GALR2 ag	INS promoter inh	INS promoter inh cell count	HSV augment	HSV augment primary fold	RGS16-Gao HTS	PKD1 inh
COc1ccc(CCNC(=O)C2CCCN(c3nc(C)cc(C)n3)C2)cc1 (centres undefined)	x	-83	141	i	1.1	110	-2
O=C(COn1nnc2ccccc21)N1CCN(Cc2ccccc2)CC1	x	56	131	i	0.99	101	4
Cn1c(-c2cc3ccccc3oc2=O)nc2ccccc21	x	x	x	i	1	96	x
O=C(CSc1ccccc1)Nc1ccc(C(=O)Nc2ccc(O)cc2)cc1	x	-19	127	i	0.87	101	0
COc1ccc2[nH]cc(CCNC(=S)NCCc3ccccc3)c2c1	x	x	x	i	0.91	95	-1
COc1ccc(NC(=S)N(CCc2c(C)[nH]c3ccccc23)Cc2cccnc2)cc1	-0.4	48	57	x	x	x	0
Clc1cc2c(c(Cn3cnc4ccccc43)c1)OCOC2	-1.2	x	x	i	0.96	77	-11
Cc1ccc(NC(=O)COc2cccc(/C=C3\SC(=S)N(CCC(=O)O)C3=O)c2)cc1Cl	x	x	x	i	0.9	100	x
COc1ccccc1/C=C/C(=O)OCC(=O)NCCC1=CCCCC1	x	18	114	i	1.1	102	7
Cc1cc(C)cc(-n2c(SC(C)C(=O)NCc3ccc4c(c3)OCO4)nc3ccccc3c2=O)c1 (centres undefined)	-0.6	-44	54	i	0.98	92	-7
CCCCCCc1cc2cc(-c3nnc(-c4ccccc4)o3)c(=O)oc2cc1O	-0.9	x	x	x	x	104	-2
O=C(CN(CC1CCCO1)C(=O)CNS(=O)(=O)c1ccc(Cl)cc1)NCCc1ccccc1 (centres undefined)	-2.8	-71	62	i	1.1	98	-10
COc1c[nH]n(C2CCCCC2)c(=O)c1=O	-1.1	27	88	i	1.1	103	-18
CC(=O)NC(c1ccccc1)c1nc2ccccc2[nH]1 (centres undefined)	-2.0	x	x	i	0.73	101	-8
COc1ccc(C2=C/C(=C/c3cccnc3)C(=O)O2)cc1OC	0.2	32	130	i	0.95	101	0
Clc1ccc(-n2ncc3c(NCCCn4ccnc4)ncnc32)cc1	-0.1	-32	101	i	0.84	93	-3
CCOC(=O)c1sc2nc3c(SCC(=O)O)cc(C(=O)c4ccccc4O)cn3c(=O)c2c1C	x	x	x	i	1.1	103	-5
[N-]=C=C1C(=S)NC(=O)[C@H]([n+]2ccccc2)[C@H]1c1ccc(Cl)cc1	x	x	x	i	0.9	99	x
Cc1cccc(C(=O)OCc2cc3ccccc3[nH]c2=O)c1	-1.1	x	x	i	0.99	103	-12
O=C(NC(=S)N1CCCCCC1)C1CC1	-0.1	-27	102	i	1	102	5
COc1ccc(NC(=O)Nc2nc(C)cc(C)n2)c(OC)c1	x	x	x	i	1.1	68	x
CCCc1cc(=O)[nH]c(SCC(=O)N2CCN(S(=O)(=O)c3ccc(C)cc3)C2)n1	-1.9	x	x	i	0.92	97	-8
COC(=O)c1sc2ccccc2c1N	-1.2	x	x	i	1	104	-5
COC(=O)CSc1snnc1-c1ccc(Cl)cc1Cl	-1.6	-471	52	i	0.97	102	-8
COc1ccccc1NC(=O)c1nn(-c2ccccc2)ccc1=O	-4.7	20	143	i	0.84	85	-15

Following part.
SMILES	GALR2 ag	INS promoter inh	INS promoter inh cell count	HSV augment	HSV augment primary fold	RGS16-Gao HTS	PKD1 inh
Cc1cc(CNC(=O)COc2ccc(F)cc2Cl)cc(C)c1O	x	-16	148	i	1.1	105	3
CCCCNC(=O)CN1CCC2(O)CCCCC2C1c1ccccc1OC (centres undefined)	-3.5	x	x	i	1.1	103	-14
COC(=O)c1ccc(CSc2ncnc3ccccc23)o1	-1.6	x	x	i	0.91	100	-25
CCCCOc1ccc(Cc2c(COCC)[nH]c(=S)[nH]c2=O)cc1	x	-7	112	i	0.98	107	3
CSc1ccc(C2C(C#N)=C(N)N(c3ccccc3)C3=C2C(=O)CCC3)cc1 (centres undefined)	0.1	x	x	i	0.85	95	-7
Cn1c(=O)[nH]c(=O)c2c1nc(N1CCNCC1)n2Cc1cccc2ccccc12	15*	18	94	i	0.75	251	-6
COC(=O)c1cc(NC(=O)C2(S(=O)(=O)c3ccc(C)cc3)CC2)cc(C(=O)OC)c1	-0.2	-6	108	i	0.92	106	-2
CCOC(=O)N1CCN(CC(=O)Nc2ccc(C)c(Br)c2)CC1	-3.1	-22	125	x	x	100	-5
CCOC(=O)c1ccc2nc(NC(NC(C)=O)(C(=O)OC)C(F)(F)F)sc2c1 (centres undefined)	-2.3	-33	111	i	0.85	102	-28
Cc1cccc(NC(=O)CC(C)(C)C)c1	-1.7	12	106	i	0.85	99	-10
COc1ccc(-c2cc(C(=O)Nc3nc4ccccc4s3)c3ccccc3n2)cc1OC	1.1	-39	69	i	0.84	102	-1
CCN(C(=O)c1cc2cc3ccc(C)cc3nc2o1)c1ccc(OC)cc1	0.5	-7	128	i	0.78	103	-5
O=C(CSCc1ccc(F)cc1)Nc1ccc(F)cc1	-0.7	-3	83	i	0.93	105	-9
O=C(CCc1nnc(CCCc2ccccc2)o1)NCC(F)(F)F	x	29	141	i	1.3	104	1
CCN1C(=O)c2cccc3c(S(=O)(=O)NC(Cc4c[nH]c5ccccc45)C(=O)O)ccc1c23 (centres undefined)	-0.8	9	82	i	1.1	105	-6
COc1cccc(/C=C2\SC(=O)NC2=O)c1OCc1ccc(C(=O)O)cc1	x	x	x	i	0.94	102	-11
O=C1CN(C(=O)COC(=O)CCNS(=O)(=O)c2ccc(Cl)cc2)c2ccccc2N1	x	x	x	i	0.94	99	x
CCOC(=O)COn1c(=O)c(-c2ccc(OC)c(OC)c2)[n+]([O-])c2ccccc21	-0.9	0	104	i	1.1	94	-3
COCCCNCCCOc1ccc(C(C)(C)c2ccccc2)cc1	-0.4	-14	149	i	0.68	103	-4
CC(=O)n1c(C=Nc2ccc(Cl)cc2)c(O)c2ccccc21	x	x	x	i	0.81	103	x
Cc1cc(NC2C3CC4CC(C3)CC2C4)n2ncnc2n1 (centres undefined)	-1.5	x	x	i	1.1	99	-3
CCS(=O)(=O)c1ccc2oc(Nc3ccc(C(C)(C)C)cc3)nc2c1	x	x	x	i	0.8	97	-7
COc1ccc(SCCN2CCN(CC(C)C)CCC2=O)cc1	x	x	x	i	0.7	103	x
COc1ccc(CCNC(=O)C2CCCN(Cc3nc(-c4cccc(Cl)c4)oc3C)C2)cc1OC (centres undefined)	-2.7	-93	100	i	0.85	105	4
NC(=O)c1cc(N)ccc1N1CCCC1	-2.5	x	x	i	1.1	99	14

(listing goes on)
SMILES	GALR2 ag	INS promoter inh	INS promoter inh cell count	HSV augment	HSV augment primary fold	RGS16-Gao HTS	PKD1 inh
Cc1ccccc1CN1C[C@@H]2C[C@@H](c3ccc4nsnc4c3)N3CCC[C@@]23C1=O	x	x	x	i	1	92	3
CC(c1ccccc1)N1C(=O)C2C3CCC(C3)C2C1=O (centres undefined)	-0.5	x	x	i	1	93	-15
COc1cc2c(cc1OC)C(c1ccc(-c3ccc(Cl)cc3Cl)o1)=NCC2	-0.3	x	x	x	x	101	-5
N#C/C(=C\c1ccc(Br)s1)C(=O)N1CCN(c2ccccc2)CC1	-1.2	-5	200	i	0.97	103	0
O=C(c1ccccc1)c1cc2c(cc1[N+](=O)[O-])OCCO2	x	x	x	i	1	102	-6
COc1ccc(-c2nnc(SCC(=O)N3CCCC(C)C3)o2)c(OC)c1 (centres undefined)	-1.6	13	72	i	0.93	99	3
CC(C)c1ccc(C2CC(=O)N3CN(Cc4ccco4)CSC3=C2C#N)cc1 (centres undefined)	-1.6	x	x	i	0.77	93	-10
CCn1c(=O)cc(OCC(=O)Nc2cccnc2)c2ccccc21	-1.3	23	96	i	1	90	13
CCC(c1nnnn1CCc1ccccc1)N(Cc1ccco1)Cc1cc2cc(C)cc(C)c2[nH]c1=O (centres undefined)	0.5	x	x	i	0.91	107	1
CSc1cccc(NC(=O)Nc2ccccc2C(N)=O)c1	x	x	x	i	0.95	101	x
CC(=O)N1c2c(cc(Br)cc2S(=O)(=O)NCc2cccnc2)CC1C (centres undefined)	-2.6	31	70	i	0.91	97	11
O=C(Nc1ccc(N2CCN(Cc3ccccc3F)CC2)cc1)c1ccccc1[N+](=O)[O-]	x	x	x	i	0.91	104	-4
Brc1cnc(N2CCOCC2)nc1N1CCCCC1	-2.6	x	x	i	0.79	97	7
O=C(CSc1nnc(-c2ccncc2)n1CCc1ccccc1)NCc1ccccc1	-1.6	-100	97	i	0.94	101	7
C=COCCNC(=O)C(=O)NC(C)C	-1.6	-21	135	i	0.92	96	1
O=C(NC1CCc2ccccc21)c1cc(COc2ccc(F)cc2F)on1 (centres undefined)	x	x	x	i	0.95	102	2
CCCn1c(N)c(C(=S)NC(=O)C2CC2)c(=O)n(C)c1=O	-1.1	-52	66	i	1.1	98	-10
Cn1c(Cn2c(=O)sc3ccccc32)nnc1SCC(=O)Nc1ccccc1	-0.4	x	x	i	1.3	93	-6
CC(C)C1Cc2c(sc3c2c(=O)n(Cc2ccccc2)c2nncn32)CO1 (centres undefined)	-0.1	0	246	i	0.85	93	-8
O=C(COc1ccc(C(=S)N2CCOCC2)cc1)N1CCCC1	-2.0	-8	66	i	0.84	97	-2
COc1ccc(N2CC(C)Cn3c2nc2c3c(=O)[nH]c(=O)n2C)cc1 (centres undefined)	-1.4	12	105	i	0.95	97	4
COc1ccc([N+](=O)[O-])cc1NC(=O)C(C)N1CCN(C(=O)c2ccco2)CC1 (centres undefined)	x	7	111	i	0.96	94	-3
CCC(=O)Nc1cccc(Oc2nc(C)cc(C)c2C#N)c1	-1.4	x	x	i	1.2	114	-14
CCOc1ccc(-n2c(SCC(=O)Nc3cc(C)on3)nc3c([nH]c4ccccc43)c2=O)cc1	0.0	x	x	i	0.8	103	7
O=C1/C(=C\c2ccncc2)SC(=S)N1C1CCCCC1	-1.1	-7	80	i	0.97	97	-6

Remaining list, next part
SMILES	GALR2 ag	INS promoter inh	INS promoter inh cell count	HSV augment	HSV augment primary fold	RGS16-Gao HTS	PKD1 inh
CC(C)c1ccc(CNc2cc(N3CCCC3)ccc2[N+](=O)[O-])cc1	-2.5	-3	167	i	1.1	97	-15
Cc1cc(O)ccc1NC(=O)CCN1C(=O)c2ccc([N+](=O)[O-])cc2C1=O	-0.5	-4	72	i	0.96	227	-11
COc1ccc(-c2csc(NC(=O)c3ccc(OCC(=O)N4CCOCC4)c(OC)c3)n2)cc1OC	-0.8	14	94	i	0.64	18*	-18
CC(C)C[C@H](NC(=O)NC1CCCc2ccccc21)C(=O)O (some centres undefined)	x	x	x	i	0.97	105	x
Cc1ccc(CN2CCSCC2)c(C)c1	-0.5	29	150	i	1	108	4
O=C(NN1C(=O)/C(=C/c2cccs2)SC1=S)c1ccncc1	x	x	x	i	0.99	104	x
CN(C)c1ccnc2sc3c(NCC(O)CO)ncnc3c12 (centres undefined)	-0.6	-6	90	i	0.97	111	-6
O=C(O)c1cccnc1SC1CC(=O)N(c2cccc(C(F)(F)F)c2)C1=O (centres undefined)	-2.4	x	x	i	0.89	100	-5
Cc1cc(-c2nn3c(C)nnc3s2)ccc1NC(=O)C(C)(C)C	-2.5	x	x	i	1.1	x	14
CC1Oc2ccccc2C=C1/C=N/Nc1ccc(C(=O)O)cc1 (centres undefined)	x	x	x	i	1.1	99	x
COc1cc(C)c(NC(=S)NCCCN2CCOCC2)cc1OC	x	x	x	i	0.91	91	-4
Cc1ccc(-n2cnc(N)c2C(=O)c2cccc([N+](=O)[O-])c2)cc1	x	x	x	i	0.8	104	x
O=C(c1cc(-c2cccc(O)c2)on1)N1CCOCC1	-2.8	40	121	i	0.87	101	-1

In the list so far, these contain a furan ring, fused or not.
SMILES	GALR2 ag	INS promoter inh	INS promoter inh cell count	HSV augment	HSV augment primary fold	RGS16-Gao HTS	PKD1 inh
COC(=O)c1ccc(CSc2ncnc3ccccc23)o1	-1.6	x	x	i	0.91	100	-25
CCN(C(=O)c1cc2cc3ccc(C)cc3nc2o1)c1ccc(OC)cc1	0.5	-7	128	i	0.78	103	-5
COc1cc2c(cc1OC)C(c1ccc(-c3ccc(Cl)cc3Cl)o1)=NCC2	-0.3	x	x	x	x	101	-5
CC(C)c1ccc(C2CC(=O)N3CN(Cc4ccco4)CSC3=C2C#N)cc1 (centres undefined)	-1.6	x	x	i	0.77	93	-10
CCC(c1nnnn1CCc1ccccc1)N(Cc1ccco1)Cc1cc2cc(C)cc(C)c2[nH]c1=O (centres undefined)	0.5	x	x	i	0.91	107	1
COc1ccc([N+](=O)[O-])cc1NC(=O)C(C)N1CCN(C(=O)c2ccco2)CC1 (centres undefined)	x	7	111	i	0.96	94	-3

Marked active in GALR2 ag, among the entries above:
| Compound | GALR2 ag | HSV augment | HSV augment primary fold | RGS16-Gao HTS | PKD1 inh |
| --- | --- | --- | --- | --- | --- |
| Cn1c(=O)[nH]c(=O)c2c1nc(N1CCNCC1)n2Cc1cccc2ccccc12 | 15* | i | 0.75 | 251 | -6 |

Source: PubChem BioAssay (several laboratories)
